Assay outcomes (PubChem)
FGF22 binding: FGF22 (human) thermal shift binding; Q9HCT0; AID 651658; recombinant FGF22 thermal shift, SYPRO orange fluorescence; percent of sucrose octasulfate shift, DMSO zero; calls only at 9.99 µM; 340,000 compounds, 1.5% hits;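 active = melting point raised past a set limit in the mean and every replicate; three in four hits are not shown here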
Target sequence (Q9HCT0 whole entry, looked up): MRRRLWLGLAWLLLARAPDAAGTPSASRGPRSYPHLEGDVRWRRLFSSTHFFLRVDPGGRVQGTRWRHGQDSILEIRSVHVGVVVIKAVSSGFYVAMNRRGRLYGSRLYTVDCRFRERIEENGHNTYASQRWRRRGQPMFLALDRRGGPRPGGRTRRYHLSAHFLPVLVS
Calls only; i = inactive. Not all compounds are listed; count on the stated rates, not on these rows.

SMILES	FGF22 binding
CO[C@H]1CN(C)C(=O)c2ccc(NC(=O)C3CCC3)cc2OC[C@H](C)N(Cc2cccnc2)C[C@@H]1C	i
O=C(Nc1ccc(C(F)(F)F)cc1)N[C@H]1CC[C@H](CC(=O)N2CCCCC2)O[C@@H]1CO	i
C[C@@H]1CN([C@@H](C)CO)S(=O)(=O)c2ccc(C#C[C@@H](C)O)cc2O[C@@H]1CN(C)Cc1ccccn1	i
CN1CCN(C(=O)C[C@H]2C[C@H]3c4cc(NC(=O)c5cccnc5)ccc4O[C@H]3[C@@H](CO)O2)CC1	i
COc1ccc(S(=O)(=O)N2C[C@H](O)COC[C@H]3O[C@@H](CC(=O)NCc4ccc(Cl)c(Cl)c4)CC[C@@H]32)cc1	i
CC(C)NC(=O)N(C)C[C@H]1Oc2c(NC(=O)NC3CCCCC3)cccc2C(=O)N([C@H](C)CO)C[C@H]1C	i
C[C@@H]1CCCCO[C@@H](CN(C)Cc2ccc(C(=O)O)cc2)[C@H](C)CN([C@@H](C)CO)C(=O)c2cc(NC(=O)c3ccncc3)ccc2O1	i
OC[C@@H]1[C@H](c2ccc(/C=C/c3ccccc3)cc2)[C@H]2CN(Cc3cccnc3)CCCCN12	i
N#C[C@H]1[C@H](c2ccccc2-c2cccc(F)c2)[C@@H](CO)N1C(=O)C1CCOCC1	i
O=C(CC1CC1)Nc1ccc2c(c1)[C@@H]1C[C@@H](CC(=O)NC3CCCCC3)O[C@@H](CO)[C@@H]1O2	i
CO[C@@H]1CN(C)C(=O)c2ccc(NC(=O)Nc3cccc(Cl)c3)cc2OC[C@H](C)NC[C@H]1C	i
C[C@@H]1CN([C@@H](C)CO)C(=O)c2cc(C3=CCCC3)cnc2O[C@@H]1CN(C)C	i
COc1ccccc1-c1ccc2c(c1)[C@@H]1C[C@H]3[C@@H](CN1CC2)[C@H](C)ON3C	i
COc1cccc(NC(=O)N(C)C[C@@H]2OCc3ccccc3-c3ccccc3C(=O)N([C@@H](C)CO)C[C@H]2C)c1	i
COc1ccc(S(=O)(=O)N2CCCCN3[C@H](C2)[C@H](c2ccc(-c4cccnc4)cc2)[C@@H]3CO)cc1	i
C[C@@H]1CCCCO[C@@H](CN(C)C(=O)Nc2ccccc2)[C@@H](C)CN([C@H](C)CO)C(=O)c2cc(NC(=O)Nc3ccc4c(c3)OCO4)ccc2O1	i
C[C@H]1CN([C@@H](C)CO)C(=O)Cc2cc(NC(=O)Nc3cccc4ccccc34)ccc2O[C@@H]1CN(C)C	i
C[C@H]1CN([C@@H](C)CO)C(=O)c2cccc(NS(=O)(=O)c3cccs3)c2O[C@H]1CN(C)C(=O)Nc1ccc2c(c1)OCO2	i
CO[C@@H]1CN(C)C(=O)c2cc(NC(C)=O)ccc2OC[C@H](C)N(C(=O)CC2CC2)C[C@@H]1C	i
OC[C@@H]1[C@H](c2ccc(-c3ccc(F)cc3)cc2)[C@@H]2CN(Cc3cccnc3)CCCCN12	i

Quoted at random: 3 entries already listed
SMILES	FGF22 binding
C[C@H]1CN([C@@H](C)CO)C(=O)c2cccc(NS(=O)(=O)c3cccs3)c2O[C@H]1CN(C)C(=O)Nc1ccc2c(c1)OCO2	i
COc1ccc(S(=O)(=O)N2C[C@H](O)COC[C@H]3O[C@@H](CC(=O)NCc4ccc(Cl)c(Cl)c4)CC[C@@H]32)cc1	i
COc1cccc(NC(=O)N(C)C[C@@H]2OCc3ccccc3-c3ccccc3C(=O)N([C@@H](C)CO)C[C@H]2C)c1	i

Next part
SMILES	FGF22 binding
COc1ccc(CN(C)C[C@H]2OCCCC[C@H](C)Oc3ccc(NS(=O)(=O)c4ccc(Cl)cc4)cc3C(=O)N([C@H](C)CO)C[C@H]2C)cc1	i
CN1C(=O)c2cc(NC(=O)c3ccc(C#N)cc3)ccc2OC[C@H]2O[C@@H](CC(=O)NCc3ccc4c(c3)OCO4)CC[C@@H]21	i
CCC(=O)N1CC2(C1)[C@H](c1ccc(-c3ccc(C)cc3)cc1)[C@H](CO)N2S(C)(=O)=O	i
C[C@H]1CN([C@@H](C)CO)S(=O)(=O)c2ccc(C#Cc3ccncc3)cc2O[C@H]1CN(C)C(=O)C1CCCCC1	i
C[C@H]1CN([C@@H](C)CO)C(=O)c2cccc(NC(=O)Nc3ccccc3)c2O[C@@H]1CN(C)C	i
COc1ccc(CN2C[C@H](O)COC[C@H]3O[C@H](CC(=O)NCc4ccncn4)CC[C@@H]32)cc1	i
C[C@H](CO)N1C[C@H](C)[C@@H](CN(C)C(=O)Nc2ccc3c(c2)OCO3)OCCCC[C@H](C)Oc2ccc(NC(=O)C3CCCCC3)cc2C1=O	i
O=C(Nc1ccc2c(c1)[C@@H]1C[C@H](CC(=O)N3CCc4ccccc4C3)O[C@@H](CO)[C@@H]1O2)C1CCOCC1	i
COc1ccc2c3c([nH]c2c1)[C@H](CO)N(C(=O)CN1CCOCC1)CC31CCN(Cc2ccccc2)CC1	i
COCC#Cc1ccc2c(c1)O[C@H](CN(C)C(C)=O)[C@H](C)CN([C@@H](C)CO)S2(=O)=O	i
CC(C)CC#Cc1ccc2c(c1)O[C@@H](CN(C)Cc1cccnc1)[C@H](C)CN([C@@H](C)CO)S2(=O)=O	i
C[C@@H](NC(=O)C[C@@H]1CC[C@H](NC(=O)Cc2ccccn2)[C@H](CO)O1)c1ccccc1	i
COc1ccc(NC(=O)Nc2ccc3c(c2)C(=O)N([C@@H](C)CO)C[C@@H](C)[C@@H](CN(C)C(=O)Nc2ccc(C(F)(F)F)cc2)O3)cc1	i
O=C(C[C@@H]1CC[C@@H](NC(=O)c2ccc(F)cc2)[C@H](CO)O1)NCCc1ccncc1	i
C[C@H](CO)N1C[C@H](C)[C@@H](CN(C)CC2CCCCC2)OCCCC[C@H](C)Oc2ccc(NS(=O)(=O)c3cn(C)cn3)cc2C1=O	i
COc1ccc(S(=O)(=O)N2CCN(Cc3ccc(OCCO)cc3)CC2)cc1	i
O=C(C1CC1)N1[C@@H]2CN(S(=O)(=O)c3ccccc3)c3ccccc3[C@@H]2[C@@H]1CO	i
C[C@@H]1CN([C@@H](C)CO)C(=O)c2ccccc2-c2ccccc2CO[C@H]1CN(C)S(=O)(=O)c1ccsc1	i
CCC(=O)N1CCC2(CC1)CN(S(C)(=O)=O)[C@@H](CO)c1[nH]c3cc(OC)ccc3c12	i
C[C@H]1CN([C@@H](C)CO)S(=O)(=O)c2ccc(-c3ccncc3)cc2O[C@H]1CN(C)C(=O)C1CC1	i
COc1ccc2c3c(n(C)c2c1)[C@H](CO)N(C(=O)c1ccccn1)CC31CCN(C(C)=O)CC1	i
C[C@H]1CN([C@@H](C)CO)C(=O)c2cc(NC(=O)Nc3ccc(C(F)(F)F)cc3)ccc2O[C@H]1CN(C)Cc1ccc(Oc2ccccc2)cc1	i
C[C@H]1CN([C@@H](C)CO)C(=O)c2cc(C#CC3CCCCC3)cnc2O[C@H]1CN(C)S(=O)(=O)c1ccccc1	i
C[C@@H]1CN([C@H](C)CO)S(=O)(=O)c2ccc(-c3cncnc3)cc2O[C@H]1CN(C)Cc1ccccn1	i
C[C@@H]1CN([C@@H](C)CO)C(=O)c2cc(NS(=O)(=O)c3cccs3)ccc2O[C@@H]1CN(C)C(=O)Nc1ccc(C(F)(F)F)cc1	i
CN1C(=O)c2cc(NC(=O)NCc3ccccc3)ccc2OC[C@@H]2O[C@@H](CC(=O)O)CC[C@@H]21	i
N#C[C@H]1[C@@H](c2ccc(C#Cc3ccccc3F)cc2)[C@@H](CO)N1C(=O)C1CCCCC1	i
C/C=C/c1ccc([C@H]2[C@@H](CO)N3C(=O)CN(C(=O)Nc4ccccc4F)C[C@@H]23)cc1	i
C[C@H](NC(=O)C[C@H]1C[C@@H]2c3cc(NC(=O)CC4CC4)ccc3O[C@@H]2[C@@H](CO)O1)c1ccccc1	i
CC(C)NC(=O)Nc1cccc2c1O[C@H](CN(C)C(=O)Nc1ccc(C(F)(F)F)cc1)[C@H](C)CN([C@@H](C)CO)C2=O	i
C[C@H](CO)N1C[C@H](C)[C@H](CN(C)S(=O)(=O)c2cn(C)cn2)Oc2ccc(NC(=O)CCCCCC(=O)Nc3ccccc3N)cc2C1=O	i
CN1C(=O)c2cc(NC(=O)Cc3cccs3)ccc2OC[C@H]2O[C@H](CC(=O)NCCCN3CCOCC3)CC[C@H]21	i
CNC[C@H]1Oc2ccc(NC(=O)C3CCCCC3)cc2CC(=O)N([C@@H](C)CO)C[C@H]1C	i
CCCNC(=O)NC[C@H]1[C@@H](c2ccc(C3=CCCCC3)cc2)[C@@H](CO)N1C(C)=O	i
C[C@H](CO)N1C[C@H](C)[C@H](CN(C)S(C)(=O)=O)Oc2c(NC(=O)C3CCCCC3)cccc2C1=O	i
CCNC(=O)[C@H]1[C@H](CO)[C@H]2Cn3c(ccc(-c4ccc(OC)cc4)c3=O)[C@@H]1N2CC	i
C[C@@H]1CN([C@@H](C)CO)S(=O)(=O)c2ccc(-c3cccc(C(=O)N(C)C)c3)cc2O[C@@H]1CN(C)C(=O)Nc1ccc(F)cc1	i
CCC(=O)N(C)C[C@H]1Oc2cc(C#CC3CC3)ccc2S(=O)(=O)N([C@@H](C)CO)C[C@H]1C	i
CN(C)CC(=O)Nc1ccc2c(c1)[C@@H]1C[C@@H](CC(=O)NCc3ccc4c(c3)OCO4)O[C@H](CO)[C@@H]1O2	i
CNC[C@H]1OCCCC[C@H](C)Oc2ccc(NS(=O)(=O)c3cn(C)cn3)cc2C(=O)N([C@@H](C)CO)C[C@H]1C	i

Grouped by structure, the compounds so far containing a cyano group (three)
SMILES	FGF22 binding
N#C[C@H]1[C@H](c2ccccc2-c2cccc(F)c2)[C@@H](CO)N1C(=O)C1CCOCC1	i
CN1C(=O)c2cc(NC(=O)c3ccc(C#N)cc3)ccc2OC[C@H]2O[C@@H](CC(=O)NCc3ccc4c(c3)OCO4)CC[C@@H]21	i
N#C[C@H]1[C@@H](c2ccc(C#Cc3ccccc3F)cc2)[C@@H](CO)N1C(=O)C1CCCCC1	i

Entries from the list above with two or more sulfur atoms, in the order listed:
SMILES	FGF22 binding
C[C@H]1CN([C@@H](C)CO)C(=O)c2cccc(NS(=O)(=O)c3cccs3)c2O[C@H]1CN(C)C(=O)Nc1ccc2c(c1)OCO2	i
C[C@@H]1CN([C@@H](C)CO)C(=O)c2ccccc2-c2ccccc2CO[C@H]1CN(C)S(=O)(=O)c1ccsc1	i
C[C@@H]1CN([C@@H](C)CO)C(=O)c2cc(NS(=O)(=O)c3cccs3)ccc2O[C@@H]1CN(C)C(=O)Nc1ccc(C(F)(F)F)cc1	i

Next records.
SMILES	FGF22 binding
Cc1ccc(S(=O)(=O)Nc2ccc3c(c2)C(=O)N([C@@H](C)CO)C[C@@H](C)[C@@H](CN(C)Cc2ccc4c(c2)OCO4)OCCCC[C@H](C)O3)cc1	i
O=C(c1ccccc1)N1C[C@@H]2[C@H](c3ccccc31)[C@H](CO)N2C(=O)c1ccccn1	i
COc1ccccc1CNC(=O)C[C@@H]1CC[C@H]2[C@@H](COC[C@@H](O)CN2Cc2cccc(-c3ccncc3)c2)O1	i
C[C@@H]1CCCCO[C@H](CN(C)Cc2ccncc2)[C@@H](C)CN([C@@H](C)CO)C(=O)c2cc(NS(=O)(=O)c3ccc(F)cc3)ccc2O1	i
Cc1noc(C)c1S(=O)(=O)Nc1ccc2c(c1)C(=O)N([C@@H](C)CO)C[C@@H](C)[C@@H](CN(C)S(=O)(=O)c1ccccc1)OCCCC[C@H](C)O2	i
CCC(=O)N[C@@H]1CC[C@H](CCNC(=O)Nc2ccc(F)cc2)O[C@H]1CO	i
CCCNC(=O)C[C@H]1C[C@H]2c3cc(NS(=O)(=O)c4ccccc4)ccc3O[C@H]2[C@H](CO)O1	i
COc1ccccc1S(=O)(=O)N[C@H]1C=C[C@@H](CC(=O)NCc2cccc(F)c2)O[C@@H]1CO	i
Cc1noc(C)c1NC(=O)Nc1cccc2c1O[C@@H](CN(C)S(=O)(=O)c1cccs1)[C@H](C)CN([C@H](C)CO)C2=O	i
CCc1cnc(N2[C@H](CO)[C@H](c3ccccc3)[C@@H]2C#N)s1	i
C[C@H](CO)N1C[C@H](C)[C@H](CN(C)C(=O)C2CCC2)Oc2cc(-c3ccc(C(=O)N(C)C)cc3)ccc2S1(=O)=O	i
CC(C)NC(=O)N1[C@@H]2CN(C(=O)C3CCC3)c3ccccc3[C@@H]2[C@@H]1CO	i
CO[C@@H]1CN(C)C(=O)c2ccc(NC(=O)c3cnccn3)cc2OC[C@@H](C)N(C(C)=O)C[C@@H]1C	i
CO[C@@H](CN(C)C(=O)C1CCOCC1)[C@H](C)CN([C@@H](C)CO)S(=O)(=O)c1ccccc1	i
C[C@H](O)[C@@H]1C(=O)N2CCc3c([nH]c4c(-c5ccccc5)cccc34)[C@@H]2C[C@@H]1N(C)C(=O)NC1CCCCC1	i
C[C@H](CO)N1C[C@H](C)[C@H](CN(C)S(=O)(=O)c2cn(C)cn2)Oc2ncc(C3=CCCCC3)cc2C1=O	i
O=C(c1cnccn1)N1CC(=O)N2[C@H](C1)[C@H](c1ccc(-c3cccc(F)c3)cc1)[C@@H]2CO	i
C[C@@H]1CCCCO[C@H](CN(C)S(=O)(=O)c2cccs2)[C@@H](C)CN([C@H](C)CO)C(=O)c2cc(NS(=O)(=O)c3ccc(F)cc3)ccc2O1	i
CCCC(=O)Nc1ccc2c(c1)OC[C@H](C)N(CCC)C[C@@H](C)[C@H](OC)CN(C)C2=O	i
C[C@H](CO)N1C[C@H](C)[C@H](CN(C)C)Oc2ccc(NS(C)(=O)=O)cc2CC1=O	i
CO[C@H]1CN(C)C(=O)c2ccc(NC(=O)Nc3cccc(Cl)c3)cc2OC[C@@H](C)NC[C@@H]1C	i
Cc1noc(C)c1S(=O)(=O)Nc1ccc2c(c1)C(=O)N([C@H](C)CO)C[C@@H](C)[C@@H](CN(C)C(=O)CCCN(C)C)OCCCC[C@@H](C)O2	i
COc1ccc(C#Cc2ccc([C@H]3[C@H](CO)N4CCCCN(S(=O)(=O)c5ccccc5)C[C@@H]34)cc2)cc1	i
COc1ccccc1CN1[C@H](CO)[C@@H]2c3ccccc3N(C(=O)C3CCCC3)C[C@@H]21	i
CCOC(=O)N(C)[C@H]1C[C@H]2c3cc(-c4ccccc4C)ccc3CCN2C[C@H]1[C@H](C)O	i
